T cruzi inh – inhibitors of intracellular T. cruzi growth, primary screen, luminescence, NIH3T3 host cells. T. cruzi beta-gal in NIH3T3, 90 h. inhibition, % (no concentration beside the values). 300,000 compounds, 1.4% hits. AID 1885, 2009;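 active means mean inhibition across valid replicates above about 55%, limit read from the data; inconclusive means mean below that limit but half or more replicates reach it; inactive means mean below it, under half of replicates reach it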;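 further: signal also drops with host cell toxicity which is not excluded here; 0% = plate median of DMSO wells and 100% = zero luminescence signal; higher percent means less beta-gal luminescence so fewer parasites; stock transfer was 50 nL into about 50 µL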
Calb FLC – C. albicans growth inhibition with fluconazole, primary screen, CaCi-2 strain, Alamar Blue fluorescence; C. albicans CaCi-2 (fluconazole-resistant clinical isolate) + fluconazole, 48 h; growth inhibition, % (no concentration beside the values); 300,000 compounds, 0.57% hits; AID 1979, 2009;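 active means most replicates above 75%; inconclusive means exactly half above 75%; inactive means most below 75%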;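 further: all wells also contain fluconazole at 8 µg/ml as a sub-toxic cotreatment; 0% = median of DMSO wells and 100% = median of geldanamycin control wells; wells of about 8 µL received 7.5 nL stock; the first replicate is given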
Vif TR-FRET – inhibitors of Vif binding to APOBEC3G peptide, primary screen, biochemical, TR-FRET, GST-Vif 1-94, biotin-A3G peptide, dose response retest (AID 1117319); 260,000 compounds, 0.57% hits; inhibition, %; hits with a dose series show IC50 in µM; Virion infectivity factor (Human immunodeficiency virus type 1 group M subtype B (isolate …; TR-FRET GST-Vif / biotin-A3G peptide binding; higher % means a stronger effect; test concentration not given here; strong numbers were not always called active;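 active means above the screen mean plus three standard deviations and confirmed in dose response; inconclusive means results disagree or hit not tested in dose response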;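 further: Vif residues 1-94 fused to GST binding biotinylated APOBEC3G peptide 110-148; 0% = full assay without inhibitor and 100% = GST in place of GST-Vif; retest series ran down from 100 µM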
RanGTP-Imp inh – inhibitors of RanGTP-importin-beta interaction, primary screen, biochemical, FRET, CFP-Ran, YFP-importin-beta, homogeneous. Ran GTPase (GTP-bound) - importin-beta complex. cell-free CFP-Ran/YFP-importin-beta FRET ratio. inhibition, % (no concentration beside the values). 300,000 compounds, 1.1% hits. AID 2216, 2009;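 active means most replicates above 15%; inconclusive means exactly half above 15%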;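 further: 0% = DMSO wells and 100% = Ran loaded with GDP instead of GTP; wells of about 40 µL received 100 nL stock; the first replicate is given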
AF4-AF9 inh – inhibitors of AF4 peptide binding to AF9, primary screen, biochemical, AlphaScreen, biotin-AF4 peptide, FLAG-AF9, single point; Protein AF-9 (Homo sapiens), P42568; inhibition, % at 10 µM; 350,000 compounds, 0.47% hits; AID 651704, 2012;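 active means every replicate reaching a set inhibition limit, whatever the replicate mean, cut at about 25% in these data; inconclusive means mean inhibition reaches that limit but some replicates miss it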;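 further: 0% = plate neutral control median and 100% = total signal loss; the record names both 10 and 1 µM as test concentration; the first replicate is given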
Target sequence (P42568 whole entry, looked up): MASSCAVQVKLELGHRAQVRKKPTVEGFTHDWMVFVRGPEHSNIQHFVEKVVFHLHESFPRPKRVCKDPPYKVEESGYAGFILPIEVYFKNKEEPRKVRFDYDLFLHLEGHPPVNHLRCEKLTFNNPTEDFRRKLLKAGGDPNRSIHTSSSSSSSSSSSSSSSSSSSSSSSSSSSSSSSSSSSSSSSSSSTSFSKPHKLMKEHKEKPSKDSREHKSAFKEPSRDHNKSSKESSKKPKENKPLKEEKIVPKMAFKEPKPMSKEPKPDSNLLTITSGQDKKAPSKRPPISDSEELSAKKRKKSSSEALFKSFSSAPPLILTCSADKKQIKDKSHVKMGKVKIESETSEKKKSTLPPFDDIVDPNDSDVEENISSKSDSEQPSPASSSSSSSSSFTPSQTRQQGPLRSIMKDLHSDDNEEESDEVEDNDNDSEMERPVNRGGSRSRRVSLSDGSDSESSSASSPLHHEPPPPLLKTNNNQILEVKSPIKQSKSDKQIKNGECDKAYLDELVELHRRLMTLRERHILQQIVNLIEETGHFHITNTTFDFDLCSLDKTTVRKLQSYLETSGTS
Bfl-1 A1 inh – caspase 3/7 activation in MEF A1-2A-BIM cells, primary screen, A1 inhibitor project, cell-based, luminescence, HTS; Caspase-Glo 3/7 luminescence, 3 h; percent of clofoctol response, vehicle zero; caspase activation, % (test concentration not listed); 330,000 compounds, 0.066% hits; AID 2462, 2010;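 active means over half of replicate activation scores above 10%, or exactly half above 10 with the replicate mean above 10; inconclusive means replicate mean below 10 yet half the replicates above 10; inactive means over half of replicates below 10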;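 further: wells of about 30 µL received 50 nL stock; many hits fall short of the cut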
Beta cell apopt – inhibitors of cytokine-induced beta cell apoptosis, primary screen, luminescence | INS-1E cytokine-induced death, ATP luminescence, 48 h; percent of positive-control rescue, neutral wells zero | protection from apoptosis, % (no concentration beside the values) | 300,000 compounds, 0.8% hits;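 active means all replicates at 75% or more, or half of them and the mean; inconclusive means half reach 75% but not the mean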;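 further: 0% = cytokine-treated negative control wells and 100% = positive control rescue; higher means more ATP so stronger rescue from cytokine killing; wells of about 40 µL received 100 nL stock; the first replicate is given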
rRNA inh HTS – reduced GFP signal of wild-type E. coli, primary screen, bacterial rRNA inhibitor project, GFP/RFP fluorescence, OD600, single point; E. coli WT GFP vs humanized-ribosome RFP mutants, 24 h; stronger effect = lower value; DMSO median 0, no signal -100; GFP signal change (wild-type ribosome), % (test concentration not listed); 350,000 compounds, 1.6% hits;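 active means significant combined selectivity score with lowered wild-type GFP, culture density cut under 30%, mutant RFP and density less affected; inactive means any of these conditions unmet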; further: one replicate is shown; some compounds called inactive have numbers as strong as hits
rRNA inh HTS OD600 – recorded beside rRNA inh HTS, whose call it bears; OD600 change, %; measured here: OD600 growth;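 optical density of the mix in the first replicate; 0 = DMSO median and -100 = no signal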
rRNA inh HTS RFP – recorded beside rRNA inh HTS, whose call it bears; RFP signal change, %; measured here: RFP humanized mutant strains;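 first replicate; 0 = DMSO median and -100 = no signal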
An asterisk follows results filed as active; u = inconclusive; x = no result given; & = joins results of further samples. This is a subset, so the mix of outcomes need not match the whole.

SMILES	T cruzi inh	Calb FLC	Vif TR-FRET	RanGTP-Imp inh	AF4-AF9 inh	Bfl-1 A1 inh	Beta cell apopt	rRNA inh HTS	rRNA inh HTS OD600	rRNA inh HTS RFP
NC(=O)C1CCN(CC(=O)NC2CCCc3ccccc32)CC1 (centres undefined)	7	11	5%	-2.2	-20	-0.6	-7	7	-1	2.6
CCP(=O)(c1cccc([N+](=O)[O-])c1)c1cccc([N+](=O)[O-])c1	-10	7	8%	4.6	0.9	0.1	3	-5	3	-1.3
CC(C)c1ccc(NC(=S)NC2CCN(Cc3ccccc3)CC2)cc1	17	-18	-7%	-2.1	x	-0.3	5	x	x	x
C/C(Nc1ccc(Cl)cc1)=C(/C#N)C(N)=O	-2	-7	3%	-2.9	x	-3.5	-15	x	x	x
COc1ccc(N=C2O/C(=C/c3sc(=S)n(CC4CCCO4)c3O)N=C2C#N)cc1 (centres undefined)	-12	-3	11%	-4.0	19	0.7	-31	15	15	13
CCOc1ccc(Oc2ccccc2NC(=O)C2=COCCO2)cc1	15	8	16%	-1.3	-6.9	0.5	-4	-3	-22	-3.7
CCC(=O)OCC(=O)Nc1cc([N+](=O)[O-])ccc1OC	-6	-8	0%	-0.1	1.1	0.2	-5	16	10	2.5
O=C(NC(=S)Nc1ccc(S(=O)(=O)N2CCCCC2)cc1)c1ccccc1	-18	12	3%	2.2	x	-0.3	6	x	x	x
CCO[C@H]1OC(C(=O)NCc2ccccc2)=C[C@@H](C2CCCCC2)[C@@H]1CCCO	28	-5	12%	1.3	2.2	-1.0	-1	-22	-28	35
S=c1[nH]nc(CCc2ccccc2)n1Cc1ccccc1	-4	-4	-5%	3.6	x	-0.3	-2	x	x	x

2 of the compounds above, with bars between the fields.
canonical_smiles | T cruzi inh | Calb FLC | Vif TR-FRET | RanGTP-Imp inh | AF4-AF9 inh | Bfl-1 A1 inh | Beta cell apopt | rRNA inh HTS | rRNA inh HTS OD600 | rRNA inh HTS RFP
NC(=O)C1CCN(CC(=O)NC2CCCc3ccccc32)CC1 (centres undefined) | 7 | 11 | 5% | -2.2 | -20 | -0.6 | -7 | 7 | -1 | 2.6
CCP(=O)(c1cccc([N+](=O)[O-])c1)c1cccc([N+](=O)[O-])c1 | -10 | 7 | 8% | 4.6 | 0.9 | 0.1 | 3 | -5 | 3 | -1.3

4 structures out of the list, sorted by number of heavy atoms, low to high:
SMILES	T cruzi inh	Calb FLC	Vif TR-FRET	RanGTP-Imp inh	AF4-AF9 inh	Bfl-1 A1 inh	Beta cell apopt	rRNA inh HTS	rRNA inh HTS OD600	rRNA inh HTS RFP
S=c1[nH]nc(CCc2ccccc2)n1Cc1ccccc1	-4	-4	-5%	3.6	x	-0.3	-2	x	x	x
CCP(=O)(c1cccc([N+](=O)[O-])c1)c1cccc([N+](=O)[O-])c1	-10	7	8%	4.6	0.9	0.1	3	-5	3	-1.3
O=C(NC(=S)Nc1ccc(S(=O)(=O)N2CCCCC2)cc1)c1ccccc1	-18	12	3%	2.2	x	-0.3	6	x	x	x
COc1ccc(N=C2O/C(=C/c3sc(=S)n(CC4CCCO4)c3O)N=C2C#N)cc1 (centres undefined)	-12	-3	11%	-4.0	19	0.7	-31	15	15	13

Results in Bfl-1 A1 inh, Beta cell apopt and rRNA inh HTS, for 2 of the compounds above:
| Molecule | Bfl-1 A1 inh | Beta cell apopt | rRNA inh HTS |
| --- | --- | --- | --- |
| NC(=O)C1CCN(CC(=O)NC2CCCc3ccccc32)CC1 (centres undefined) | -0.6 | -7 | 7 |
| CCP(=O)(c1cccc([N+](=O)[O-])c1)c1cccc([N+](=O)[O-])c1 | 0.1 | 3 | -5 |

More compounds
SMILES	T cruzi inh	Calb FLC	Vif TR-FRET	RanGTP-Imp inh	AF4-AF9 inh	Bfl-1 A1 inh	Beta cell apopt	rRNA inh HTS	rRNA inh HTS OD600	rRNA inh HTS RFP
COc1ccc(COC(=O)c2cccc(S(=O)(=O)N3CCN(C(C)=O)CC3)c2)cc1	-1	-4	-3%	3.6	-16	1.2	-5	-14	-34	-1.9
CCOC(=O)c1cccc(-c2ccc(C=O)o2)c1	-21	u	x	0.4	-4.0	0.4	-8	0	-5	1.7
O=C(Cn1nnc2ccccc21)Nc1ccc(Cl)cn1	-20	13	-5%	2.9	-1.7	0.3	-3	14	19	1.0
COc1ccc(S(=O)(=O)Nc2ccc(N3CCOCC3)cc2)cc1	8	-2	3%	-3.4	1.0	1.9	-1	8	3	1.2
Cc1cccc2c(C(=O)Nc3ccc(Br)cc3)cc(-c3ccccn3)nc12	10	1	2%	-2.0	0.8	-0.5	10	10	5	1.8
Cc1nc(N2CCC(C(N)=O)CC2)c2c(-c3cccs3)csc2n1	x	-9	-5%	x	-1.4	-0.2	1	-27	-24	1.8
COc1ccc(NC(=O)c2ccc(-n3c(C)ccc3C)cc2)c(OC)c1	5	-22	x	3.9	-2.4	0.6	-6	6	2	3.7
Cc1cc(C)nc(SCC(=O)NN)n1	-4	2	-1%	-1.1	-1.7	0.4	1	10	9	2.6
O=C(Nc1ccc(S(=O)(=O)Nc2ncccn2)cc1)c1ccccc1Cl	-2	-6	-5%	-1.5	-2.7	0.8	x	10	12	1.0
COc1ccc(CN2CCC(=O)NC2=O)cc1	-4	5	4%	0.6	-0.3	0.1	0	x	x	x
O=C(O)CCc1nn2c3ccccc3nc2n(CCN2CCCCC2)c1=O	2	-4	-1%	-1.5	x	-1.2	-6	3	7	-4.3
O=c1oc2c3c4c(cc2s1)CCCN4CCC3	12	-24	9.5µM*	-8.3	x	0.2	-13	x	x	x
C[C@@H]1COC(=O)[C@H](Cc2ccc(F)cc2)CC/C=C/C[C@@H](CC(=O)N[C@@H](CO)Cc2ccccc2)C(=O)N1	x	x	x	x	-1.5	2.5	-5	-3	-1	2.9
Cn1c(=O)[nH]c(=O)c2c1nc(CN1CCN(c3cccc(Cl)c3)CC1)n2CCc1ccccc1	30	34	1%&-6%	-2.2	x	0.6	-3	4	9	-3.3
CC1=NN(C(=O)CSCc2ccccc2)C(O)(c2ccc(Cl)cc2)C1 (centres undefined)	-1	-18	17%	-4.7	-2.4	1.1	1	-51	-72	-6.1
Cn1c(NC(=O)c2cc(Br)ccc2Cl)cc(=O)n(C)c1=O	-6	-9	0%	2.5	6.4	0.3	x	-3	-1	1.4
O=C(CCCn1c(=O)c2ccccc2n(Cc2ccccc2)c1=O)NCc1ccco1	3	1	-6%	3.5	x	0.2	2	x	x	x
Cc1cc(C)n2nc(C(=O)Nc3nnc(C4CC4)s3)nc2n1	-5	-37	-7%	4.4	x	0.1	-9	x	x	x
O=C(NC1CCCC1)c1cc(Cl)ccc1[N+](=O)[O-]	-13	0	10%	u	5.1	0.0	-2	-3	-10	-6.5
O=C(CCc1c[nH]c2ccccc12)Nc1ncccc1O	3	-5	0%	1.0	3.4	-2.2	0	5	9	2.5
CCCCNC(=O)C1CCN(S(=O)(=O)c2c(C)noc2/C=C\c2ccc(OC)cc2)CC1	-6	8	-2%	2.9	-2.2	1.3	2	3	6	-3.9
O=C(O)c1nc(N2CCCC2)ncc1Cl	-7	37	10%	-5.0	-2.6	0.0	0	11	3	4.7
CCOC(=O)N1CCN(C(=O)Cn2ccc3ccccc3c2=O)CC1	-6	3	11%	3.3	x	1.5	-2	x	x	x
CSc1cccc(NC(=O)C2CCN(S(=O)(=O)c3ccc(F)cc3)CC2)c1	-2	0	8%	5.1	x	1.2	3	x	x	x
Cc1ccc(S(=O)(=O)N2CCN(C(=O)/C=C/c3ccco3)CC2)cc1	0	2	x	-1.2	-1.1	1.8	-3	10	21	-5.2
COc1cccc(C2C=C(c3ccc(Br)s3)Nc3ncnn32)c1OC (centres undefined)	-12	12	-20%	-15	x	-0.4	3	x	x	x
Cc1ccc(C(=O)NC(=S)NCC2CCCO2)cc1 (centres undefined)	-21	-3	-2%	-0.4	x	0.5	-5	x	x	x
O=C1CC(N2CCC(c3nc4ccccc4s3)CC2)C(=O)N1 (centres undefined)	1	-4	-6%	12	x	0.4	-1	x	x	x
COc1ccc(/C=N/n2c(-c3cc(C)[nH]n3)n[nH]c2=S)cc1	17	-15	4%	0.4	-4.0	0.3	-8	2	2	-1.6
CCCc1c(C(=O)N/N=C/C(C)=C/c2ccccc2)nnn1-c1nonc1N	16	-9	5%	1.2	-3.2	-0.7	14	3	6	0.3
CCCn1nnc(NC(=O)c2cccc(OCC)c2)n1	-10	10	1%	4.5	4.1	-0.4	4	8	12	0.7
CC(=O)Nc1ccc(-c2csc(Nc3ccc(Cl)cn3)n2)cc1	28	52	x	5.8	-1.8	-0.7	5	-7	10	-1.9
CCOC(=O)C(Sc1nn(C)c(=S)s1)C(C)=O (centres undefined)	-32	-2	u	1.8	x	-1.0	-8	x	x	x
Cc1nc(SCc2nc3cc(Cl)c(F)cc3[nH]2)c2oc3ccccc3c2n1	x	x	x	x	0.3	-0.4	16	2	-25	36
CCOC(=O)Cc1c(C)nc2cc(-c3ccc(C)cc3)[nH]n2c1=O	3	2	18%	-0.5	x	-0.7	-4	x	x	x
Cc1cccnc1NC(=O)c1ccc(Cl)c(S(=O)(=O)N2CCCC2)c1	-7	-1	x	-0.2	-2.2	-0.3	-3	3	9	-1.3
CCN(c1cccc(C)c1)S(=O)(=O)c1ccc2c(c1)CCCN2C(C)=O	9	-9	x	4.4	-2.2	-0.5	-6	-9	-18	-2.8
CN1C(=O)C(C)(C)c2cc(S(=O)(=O)NCC3CCC(C(=O)NCc4ccccc4)CC3)ccc21 (centres undefined)	-7	-9	x	u	-1.9	0.1	0	-2	-3	-3.0
O=[N+]([O-])c1ccc(N2CCOCC2)c(S(=O)(=O)N2CCOCC2)c1	-20	-8	9%	u	-6.6	-1.3	-6	15	16	-0.7
O=C(O)c1n[nH]c2ccccc12	-11	5	23%	0.1	x	0.7	-2	x	x	x
COc1ccc(/C=C(/C#N)C(=O)Nc2ccc(C)cc2C)cc1C(=O)O	-11	-3	-1%	4.4	x	0.0	3	x	x	x
Cc1ccc(Oc2cc([N+](=O)[O-])cc3c2C(=O)Nc2ccccc2O3)cc1	6	10	x	-3.8	x	-0.6	22	x	x	x
COC(=O)c1ccc2c(=O)n(CCCN3CCOCC3)c(=S)[nH]c2c1	5	25	-3%	-1.0	x	0.0	-5	7	13	1.3
CCc1c(C)nc2cc(-c3ccc(OC)c(OC)c3)nn2c1NCC1CC1	20	8	-3%	0.3	x	-1.5	x	x	x	x
